# Screening data as filed in PubChem.
# CtBP-E1A blk: qHTS Assay for Inhibitors of the CtBP/E1A Interaction; activity change, % (test concentration not listed); CtBP / adenovirus E1A interaction (AlphaScreen); AID 651724, 2012; AlphaScreen GST-E1A/His-CtBP binding, 1536-well; stronger effect = lower value; control for the full effect not named in the record; 0.49% of 340,000 active; in the data active means activity change below about -65%; inconclusive means about -30% to -65%; inactive means above about -30%; note: % is set by controls: 0 for no effect and ±100 for the full control effect; compound concentration not given in the record
#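 AlphaScreen with 125 nM GST-E1A and 125 nM His-CtBP (5X stocks) in Tris pH 8.0, 300 mM NaCl, BSA, Tween 20, TCEP. Compounds preincubated 2 h at 37 deg C, then glutathione donor/nickel acceptor beads added for 1 h at 37 deg C in dark.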
# PINK1 modulator: A Quantitative High throughput Screen to Identify Chemical Modulators of PINK1 Expression. AID 624263, 2012. Potency, µM (titrated, usually from 76.6 µM), inactives show top-dose activation (PINK1 increase), hits mostly activators. 0.2% of 410,000 active. PINK1 immunofluorescence, high-content cytometry, 24 h; active = well fitted activation curve with a large enough effect; inconclusive = small, poorly fitted or top-dose-only effect; inactive = flat fitted curve, though single readings scatter; cell line not stated here;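 note: potency is the fitted concentration of half-maximal effect; % of control where 0% means no effect; nearly all actives have a fitted effect of over 65% in size; a mitochondrial uncoupler was the plate control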
#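 Compound titrations (5 concentrations, 24 h) on a stable cell line; DMSO and CCCP controls. Endpoint: fixed-cell PINK1 immunofluorescence with mitochondrial, cell and nuclear markers, scanned by microplate cytometer.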
# Six1-Eya2 inh: qHTS Assay for Inhibitors of the Six1/Eya2 Interaction; Homeobox protein SIX1 (Homo sapiens) + Protein phosphatase EYA2 (Homo sapiens), …; AlphaScreen GST-Six1/His-Eya2 binding, biochemical; stronger effect = lower value; control for the full effect not named in the record; activity change, % (concentration not given with the values); 0.56% of 360,000 active; AID 651725, 2012; in the data active = activity change below about -65%; inconclusive = about -30% to -65%; inactive = above about -30%; note: % is set by controls: 0 for no effect and ±100 for the full control effect
#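 AlphaScreen with GST-Six1 and His-Eya2 (5X mix: 250 nM and 500 nM), glutathione donor and nickel acceptor beads; buffer 50 mM Tris pH 8.0, 300 mM NaCl, 1 mM TCEP; 1 h at 37 C in the dark.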
# D2 agonist: Beta-Arrestin HTS for Positive Allosteric Modulators of the Human D2 Dopamine Receptor: Agonists; D(2) dopamine receptor (Homo sapiens), P14416; DiscoveRx PathHunter D2 beta-arrestin, luminescence, 90 min; 100% = 57 uM dopamine signal; activation, % (test concentration not listed); 0.084% of 360,000 active; AID 624465, 2012; in the data active = activation above about 40%; inconclusive = about 15% to 40%; inactive = below about 15%; note: compound concentration not given in the record; the text of the record calls up to 30% inactive
# Target sequence (P14416 whole entry, looked up): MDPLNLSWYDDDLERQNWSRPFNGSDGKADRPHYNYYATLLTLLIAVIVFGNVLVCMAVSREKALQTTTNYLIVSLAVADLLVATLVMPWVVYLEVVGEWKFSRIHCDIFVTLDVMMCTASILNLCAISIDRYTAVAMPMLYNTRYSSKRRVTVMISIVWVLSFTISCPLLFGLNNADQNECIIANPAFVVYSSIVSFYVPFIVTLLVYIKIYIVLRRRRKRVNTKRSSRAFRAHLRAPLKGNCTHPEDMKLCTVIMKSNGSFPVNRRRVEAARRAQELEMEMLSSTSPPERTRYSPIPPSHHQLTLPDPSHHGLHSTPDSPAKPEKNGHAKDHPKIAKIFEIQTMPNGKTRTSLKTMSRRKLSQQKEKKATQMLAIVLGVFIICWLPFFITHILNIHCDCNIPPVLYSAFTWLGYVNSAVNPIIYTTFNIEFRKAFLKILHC
#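 DiscoveRx PathHunter D2 beta-arrestin cells (2,100/well) attached overnight, then compound-stimulated 90 min at 37 C in HBSS/10 mM HEPES/0.1% Tween-20 buffer; beta-galactosidase complementation read by luminescence after 1 h at ambient temperature. Dopamine 57 uM final (EC100) as control.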
# TRPML1 agonist: qHTS for Agonists of the Human Mucolipin Transient Receptor Potential 1 (TRPML1); TRPML1-expressing cells, Ca2+ dye fluorescence, FDSS; host cell line not named in the record; reference of the full effect not given here; Mucolipin-1 (Homo sapiens), Q9GZU1; activation, % (test concentration not listed); 0.12% of 410,000 active; in the data active = activation above about 50%; inconclusive = about 30% to 50%; inactive = below about 30%; note: 0% is about no effect; the text of the record puts the active cut at 80%
# Target sequence (Q9GZU1 whole entry, looked up): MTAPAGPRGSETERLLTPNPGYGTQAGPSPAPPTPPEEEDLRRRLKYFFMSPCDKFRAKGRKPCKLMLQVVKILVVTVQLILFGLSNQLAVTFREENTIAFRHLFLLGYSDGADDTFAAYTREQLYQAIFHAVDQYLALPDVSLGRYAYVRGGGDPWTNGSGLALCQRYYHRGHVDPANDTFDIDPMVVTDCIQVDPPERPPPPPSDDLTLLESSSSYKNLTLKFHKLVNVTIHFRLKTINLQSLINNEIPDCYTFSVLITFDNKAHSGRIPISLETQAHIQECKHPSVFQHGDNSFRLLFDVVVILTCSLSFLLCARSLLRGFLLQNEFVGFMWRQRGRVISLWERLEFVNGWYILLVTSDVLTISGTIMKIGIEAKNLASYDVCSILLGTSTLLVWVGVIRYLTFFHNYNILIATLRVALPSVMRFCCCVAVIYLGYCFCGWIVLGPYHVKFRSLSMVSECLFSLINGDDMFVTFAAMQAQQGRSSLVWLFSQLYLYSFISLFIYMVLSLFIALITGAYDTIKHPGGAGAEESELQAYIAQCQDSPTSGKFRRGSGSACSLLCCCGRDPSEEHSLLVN
#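 In this qHTS format, compounds were pin-transferred onto Ca8-dye-loaded TRPML1-DL cells induced with Tet overnight, and intracellular Ca2+ fluorescence was recorded kinetically for 110 s after a 10 s baseline. A subsequent 4uM final 54-4 (EC80) addition followed by a second 110 s read served as the antagonist phase.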
# D2 PAM: Beta-Arrestin HTS for Positive Allosteric Modulators of the Human D2 Dopamine Receptor: Potentiators | D(2) dopamine receptor (Homo sapiens), P14416 | DiscoveRx D2 beta-arrestin cells, luminescence, 90 min; 100% = 57 uM dopamine signal | potentiation, % (test concentration not listed) | 0.23% of 360,000 active | AID 624464, 2012; active = potentiation of 50% or more; inconclusive = 30% to 50%; inactive = 30% or less;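 note: compound concentration not given in the record; tested on top of an EC20 dose of dopamine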
#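 PathHunter D2 cells, attached overnight at 37 deg C, received compound in DMSO plus dopamine at EC20 (50 nM final) for 90 min at 37 deg C. Beta-arrestin recruitment was read as luminescence after 1 h with detection reagent at ambient temperature.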
# Active calls of the source: *; ? = inconclusive; / = no result given; & = joins results of further samples; [ ] = dose if it differs, or a comment.
compound	CtBP-E1A blk	PINK1 modulator	Six1-Eya2 inh	D2 agonist	TRPML1 agonist	D2 PAM
COc1ccc(OC)c(NC(=O)C(C)Oc2ccc(Br)cc2)c1 (stereo not drawn)	0	9.3%	-2	-1.5	0.1	-12
O=C(NCC(=O)N1CC=C(c2ccccc2)CC1)c1ccc(F)cc1	1	1.3%	3	-2.5	0.7	-28
Cc1ccccc1C(=O)Nc1cccc(NC(=O)c2cccnc2)c1	-1	?	0	-0.1	0.2	-1
CC(=O)N1CCN(C(=O)c2ccc(S(=O)(=O)Nc3ccccc3F)cc2)CC1	0	0.2%	-3	-1.5	0.1	-8
CCc1ccc(CNc2ccc(N3CCN(C(C)=O)CC3)cc2)cc1	-28	0.9%	?	12	0.2	81*
CC(Sc1ccc(S(=O)(=O)N2CCOCC2)cc1[N+](=O)[O-])C(=O)O (stereo not drawn)	-2	7.5%	-2	-2.6	0.2	-18
Cc1ccccc1NS(=O)(=O)c1cc(OCC(N)=O)c(C)cc1Cl	2	1.6%	-1	-19	0.8	-13
COc1ccccc1CNc1nc(C)c(C(=O)N(C)C)s1	2	0.3%	3	-2.2	-0.3	-5
CCCn1c(=O)c2ccccc2n2c(SCc3nc4ccccc4s3)nnc12	10	/	1	1.1	2.8	-4
COC(CN(C(=O)CCl)C(C(=O)NC1CCCCC1)c1ccccc1C)OC (stereo not drawn)	-5	-0.3%	1	-2.4	-0.6	-12
CN(C(=O)CN(C)S(=O)(=O)c1ccc(F)cc1)c1c(N)n(Cc2ccccc2)c(=O)[nH]c1=O	-19	-0.6%	7	2.3	-0.5	-11
Cc1ccc2cc(CN(CC3CCCO3)C(=O)Nc3ccccc3F)c3nnnn3c2c1 (stereo not drawn)	-1	-0.2%	-2	-1.7	-0.3	-6
CC(C)NC(=O)N(C)C[C@H]1OCc2cnnn2CCCC(=O)N([C@H](C)CO)C[C@@H]1C	4	2.1%	5	1.3	/	/
CCN1CCN(C(=O)C2CCN(S(=O)(=O)c3ccc(Br)cc3)CC2)CC1	-2	0.5%	20	-0.8	-0.2	-9
COc1cccc(-n2c(N)cc(=O)nc2SCC(=O)Nc2cc(C)on2)c1	4	2.5%	-2	-1.5	-0.2	-1

# Continued; the last 2 above are carried over.
compound	CtBP-E1A blk	PINK1 modulator	Six1-Eya2 inh	D2 agonist	TRPML1 agonist	D2 PAM
CCN1CCN(C(=O)C2CCN(S(=O)(=O)c3ccc(Br)cc3)CC2)CC1	-2	0.5%	20	-0.8	-0.2	-9
COc1cccc(-n2c(N)cc(=O)nc2SCC(=O)Nc2cc(C)on2)c1	4	2.5%	-2	-1.5	-0.2	-1
O=C1CCC(=O)N1OCCOc1ccc(Cl)c2ccccc12	9	1.5%	1	1.6	-0.3	3
O=C(O)c1ccc(Cl)c(S(=O)(=O)N(Cc2ccccc2)c2ccccc2)c1	4	3.0%	4	2.1	-0.8	0
CC(NC(=O)NC1CCCCC1)C(c1cccs1)N1CCN(c2ccccc2)CC1 (stereo not drawn)	-2	0.1%	-11	-0.6	-0.1	-6
Cc1ccc(C(=O)NNC(=O)c2ccc(S(=O)(=O)N(C)c3ccccc3)cc2)cc1	3	3.0%	2	3.0	0.0	6
CCN(C(=O)CN1CCOCC1)C1(C)C(=O)c2ccccc2C1=O	8	1.9%	-1	-9.2	-0.5	4
O=C(N/N=C/c1sc(N2CCCCC2)nc1-c1cccs1)c1cccnc1	-12	20µM*	-20	-17	7.9	-1
Cc1cc(C)c(C)c(S(=O)(=O)NCC(=O)Nc2ccccc2F)c1C	4	0.1%	-2	-1.1	-0.3	-12
COc1ccc(N2C(=O)N3[C@H](c4cccc(C)c4)[C@@H]4C(=O)N(Cc5ccccc5)C(=O)[C@@H]4[C@]3(Cc3ccccc3)C2=O)cc1	1	-0.3%	-2	0.0	-0.3	-28
CCc1cccc(CC)c1-n1c(SCC(=O)N2CCc3ccccc32)nc(O)cc1=O	2	2.7%	-4	3.2	1.4	0
CC(=O)NC(c1cccc(F)c1)c1nc(-c2ccccc2C)cs1 (stereo not drawn)	4	-0.1%	9	-3.4	-0.8	-5
FC(F)(F)c1cccc(-c2nc(-c3ccncc3)no2)c1	13	3.7%	1	0.9	-1.6	-7
NC(Cc1ccc(Cl)cc1)c1csc(Nc2ccc(S(N)(=O)=O)cc2)n1 (stereo not drawn)	-7	3.6%	-2	9.9	0.2	-6
Cc1ccc(-c2cn3c(n2)SCC3)cc1	-13	0.6%	5	-4.3	0.6	-17
CCOc1ccc(CCNC(=O)c2cccc(S(=O)(=O)N3CC(C)OC(C)C3)c2)cc1OCC (stereo not drawn)	1	-0.9%	-3	-1.7	0.4	-1
Cc1nnc(SCC(=O)NCC(=O)Nc2ccc(F)c(F)c2F)n1Cc1ccccc1	4	1.7%	15	-5.7	0.1	-1
O=C(/C=C/c1ccc(Br)cc1)NCc1cccs1	3	2.2%	5	-0.9	1.7	-19
CCC(=O)N1CCN(c2cc(C)ccc2C)CC1	5	1.9%	5	-1.3	0.7	-15
COc1ccccc1CNS(=O)(=O)c1csc(C(N)=O)c1	-9	-0.4%	10	3.4	-0.6	-8
CCOc1ccc(/C=N/Nc2ccc(C(F)(F)F)cc2[N+](=O)[O-])cc1O	?	0.6%	?	1.0	1.7	3
O=C(NN=C1CCCC1)c1ccccc1OCCOc1ccccc1	2	2.5%	3	-0.8	3.3	-2
Nc1ccc(-c2cnc[nH]2)cc1[N+](=O)[O-]	?	-2.2%	?	-3.5	-0.8	-14
CSCCC(=O)N1CCC(CCC(=O)NC2CC2)CC1	2	-1.1%	7	2.4	-0.5	-8
CCN(Cc1cnn(C)c1)C(=O)c1ccc2nc(Cc3cccc(Cl)c3)oc2c1	-1	-0.3%	-7	6.4	0.4	0
C[C@@H]1CN([C@H](C)CO)C(=O)CCCn2cc(nn2)CO[C@H]1CN(C)S(=O)(=O)c1cccs1	6	0.5%	5	-9.4	-0.7	-9
CC(C)c1ccc(N=c2c([N+](=O)[O-])nn(-c3ccc4c(c3)OCCO4)n2O)cc1	-7	/	?	5.9	1.8	71*
Cc1ccc(NC(=O)COC(=O)Cn2c(C)csc2=O)c([N+](=O)[O-])c1	1	-0.5%	2	2.6	-0.3	10
Cc1ccc2nc(NC(=O)Cn3cc4c(n3)CCCCC4)sc2c1	-1	7.1%	-2	-8.5	-1.2	-28
Clc1ccc(C2=NNC(=NCC3CCCO3)SC2)cc1 (stereo not drawn)	-22	3.8%	-6	-9.8	-0.6	-27
Cn1c(=O)c2c(nc(Sc3ncnn3CC(=O)NC3CCCCC3)n2C)n(C)c1=O	0	0.9%	8	-1.6	-0.6	-6
CN(C(=O)c1ccc(COc2ccccc2Cl)o1)c1ccccc1	-2	-0.2%	1	-1.2	/	-20
O=C(/C=C/c1ccccc1)NCc1ccc2c(c1)OCO2	-4	0.7%	-3	3.6	1.6	-13
CCc1nnc(NC(=O)CSc2nc3c(c(=O)n2C)SC(C)C3)s1 (stereo not drawn)	-6	-1.0%	-2	-0.4	1.1	0
CC(=O)CCc1ccc(OCC(=O)Nc2cccc(S(=O)(=O)N(C)c3ccccc3)c2)cc1	0	-0.1%	18	0.9	1.0	-16
Cc1cnc(NC(=O)Cc2ccc(C)c(C)c2)s1	-1	3.9%	6	-0.5	0.8	-8
COc1ccc(/C=C2\N=C3CCCN3C2=O)cc1	-3	-0.6%	3	-3.0	/	-3
C#Cc1ccc(NC(=O)C2(C)CCN2C(=O)c2cc(C)n(C)n2)cc1 (stereo not drawn)	-20	-1.2%	6	9.4	-0.2	-4
C/C=C(\C)CN1CCN(c2ccccc2)CC1	-8	-0.9%	-4	13	0.4	-10
Cc1cc(Nc2ccc(F)c(F)c2)nc(-c2ccccc2O)n1	-5	3.6%	-6	-0.8	/	-5
O=C(/C=C/c1ccccc1)N1c2ccccc2Sc2ccc(C(F)(F)F)cc21	-7	5.1%	7	-1.5	0.4	14
COC(=O)c1cc(Sc2cccc(Cl)c2Cl)ccn1	/	1.6%	3	12	-0.3	-3
CC(=O)c1c(OC(=O)c2ccccc2)ccnc1C(F)(F)F	2	1.0%	3	5.2	3.8	-3
Cc1ccccc1NC(=O)NCCc1c[nH]c2ccccc12	3	-0.4%&2.3%	4	-1.6	-0.9&1.8	4
Cc1nc2c(C)cccc2cc1C(=O)N/N=C/c1cccc([N+](=O)[O-])c1	-10	12%	-2	-2.4	1.8	-1
CCOC(=O)C1CCCN(C(=O)c2cnn3c(C(F)F)cc(-c4ccc(C)cc4)nc23)C1 (stereo not drawn)	9	1.2%	18	-3.2	5.7	4
COCCNC(=O)Cn1nc(C)c([N+](=O)[O-])c1C	0	-1.8%	8	0.6	-0.1	-1
COc1ccc(CN2CCCCC2C)c(C)c1C (stereo not drawn)	-4	-4.4%[38.3 µM]	2	-0.6	1.0	-12
Cc1cc(C(=O)COC(=O)C23CC4CC(CC(O)(C4)C2)C3)c(C)n1C	-4	2.2%	-17	-4.1	0.0	-1
O=C(NC1CC1)c1ccc(S(=O)(=O)NCC2CCCCC2)cc1	6	2.3%[38.3 µM]	1	2.1	0.3	1
O=C(CSc1nc2ccccc2c(=O)n1-c1ccccc1)NCc1ccc2c(c1)OCO2	-9	/	-6	-1.2	0.6	5
CCOc1ccc(CC(C(N)=O)C(N)=O)cc1	9	-1.6%	-3	-1.5	-0.2	-6
CN1CCN(C(=O)c2cc3c(n(-c4ccccc4)c2=O)CC(C)(C)CC3=O)CC1	-1	-1.7%	-2	-1.1	0.8	14
COc1cc(OC)c2c(-c3cccc(-c4ccc(NC(C)=O)cc4)c3)cc(=O)oc2c1	-13	1.4%	-12	-0.2	0.1	/
Clc1ccccc1NN=Cc1ccccn1	-9	5.6%	-18	-3.7	-1.0	-12
O=C1C=C(c2cccc(Cl)c2O)C[C@@H](c2ccc(F)cc2)C1	-23	5.3%	-17	-6.0	-0.2	-3
N=C(N)SCc1ccccc1Cl	-2	6.6%	-4	-4.0	-0.2	-17
